Screening data deposited in PubChem by Broad Institute.
Ecoli rRNA inh: selective bacterial rRNA inhibition in E. coli | E. coli WT GFP vs humanized-ribosome RFP mutants, fluorescence, 24 h; active compounds read low; DMSO median 0, no signal -100 | GFP signal change (wild-type ribosome), % (concentration not given with the values) | hit rate 1.6% among 350,000 | AID 720706;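 active means significant combined selectivity score with lowered wild-type GFP, culture density cut under 30%, mutant RFP and density less affected; inactive means any of these conditions unmet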; further: one replicate is shown; some compounds called inactive have numbers as strong as hits
MLL AF4-AF9 inh: blocks AF4 peptide binding to human AF9 | P42568 | AlphaScreen, biotin-AF4 peptide binding to FLAG-AF9 | inhibition, % at 10 µM | hit rate 0.47% among 350,000 | AID 651704;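 active means every replicate reaching a set inhibition limit, whatever the replicate mean, cut at about 25% in these data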;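 further: 0% = plate neutral control median and 100% = total signal loss; the record names both 10 and 1 µM as test concentration; the first replicate is given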
Target sequence (P42568 whole entry, looked up): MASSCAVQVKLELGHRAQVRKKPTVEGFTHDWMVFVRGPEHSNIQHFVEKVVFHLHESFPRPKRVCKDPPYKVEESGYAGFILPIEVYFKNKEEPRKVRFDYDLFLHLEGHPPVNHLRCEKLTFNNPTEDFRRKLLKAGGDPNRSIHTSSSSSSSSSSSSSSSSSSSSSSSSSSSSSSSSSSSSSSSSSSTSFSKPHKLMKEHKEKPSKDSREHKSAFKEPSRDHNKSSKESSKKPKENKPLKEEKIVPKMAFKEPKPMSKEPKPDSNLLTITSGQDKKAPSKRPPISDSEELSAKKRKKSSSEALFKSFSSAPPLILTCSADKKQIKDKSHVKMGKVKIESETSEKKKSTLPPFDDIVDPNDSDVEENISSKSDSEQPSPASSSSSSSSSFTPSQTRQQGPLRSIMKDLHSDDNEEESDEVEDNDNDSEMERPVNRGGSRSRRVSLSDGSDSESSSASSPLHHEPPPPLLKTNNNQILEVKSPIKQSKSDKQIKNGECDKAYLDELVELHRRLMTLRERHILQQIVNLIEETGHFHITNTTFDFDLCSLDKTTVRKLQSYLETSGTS
Ecoli rRNA inh OD600: recorded beside Ecoli rRNA inh, whose call it bears; OD600 change, %; measured here: OD600 growth;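 optical density of the mix in the first replicate; 0 = DMSO median and -100 = no signal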
Ecoli rRNA inh RFP: recorded beside Ecoli rRNA inh, whose call it bears; RFP signal change, %; measured here: RFP humanized mutant strains;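 first replicate; 0 = DMSO median and -100 = no signal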
Numbers without * were called inactive. Some of the compounds tested, so the mix of outcomes need not match the whole.

Screening COc1ccc2c3c(n(C)c2c1)[C@H](CO)N(Cc1ccncc1)CC31CN(C(=O)C2CCCCC2)C1 returned Ecoli rRNA inh -6, MLL AF4-AF9 inh 1.6, Ecoli rRNA inh OD600 -6 and Ecoli rRNA inh RFP -1.9.
`C[C@@H]1CN([C@H](C)CO)C(=O)Cc2cc(NC(=O)C3CC3)ccc2O[C@@H]1CN(C)S(=O)(=O)c1ccc(F)cc1` gave Ecoli rRNA inh 4, MLL AF4-AF9 inh -1.6, Ecoli rRNA inh OD600 5 and Ecoli rRNA inh RFP -1.2.
CN(C)C(=O)c1cccc(-c2ccc([C@H]3[C@@H](C#N)N(C(=O)C4CCCCC4)[C@H]3CO)cc2)c1 was read as Ecoli rRNA inh 0, MLL AF4-AF9 inh -0.2, Ecoli rRNA inh OD600 0 and Ecoli rRNA inh RFP 1.0.
For COC(=O)C1=C(C)N(C)C(=NCC2CC2)NC1c1cccc(Cl)c1 (configuration not stated) the results were Ecoli rRNA inh -19, MLL AF4-AF9 inh -0.2, Ecoli rRNA inh OD600 -34 and Ecoli rRNA inh RFP -6.5.
`COc1ccc(S(=O)(=O)Nc2ccc3c(c2)C(=O)N([C@@H](C)CO)C[C@H](C)[C@@H](CN(C)C(=O)Nc2ccc(F)cc2)OCCCC[C@@H](C)O3)cc1` gave Ecoli rRNA inh -2, MLL AF4-AF9 inh 2.0, Ecoli rRNA inh OD600 -5 and Ecoli rRNA inh RFP -1.5.
For CC=Cc1ccc2n(c1=O)C[C@@H]1[C@@H](CO)[C@H](C(=O)N[C@@H](C)c3ccccc3)[C@H]2N1Cc1cccnc1 (mixture of isomers) the results were Ecoli rRNA inh 2, MLL AF4-AF9 inh 0.8, Ecoli rRNA inh OD600 6 and Ecoli rRNA inh RFP -1.3.
Screening CN(C)C(=O)c1ccc(-c2ccc([C@@H]3[C@H](CO)N4CCCCN(C(=O)C5CC5)C[C@@H]34)cc2)cc1 returned Ecoli rRNA inh 6, MLL AF4-AF9 inh 0.0, Ecoli rRNA inh OD600 6 and Ecoli rRNA inh RFP -2.9.
Screening COc1ccc(CNC(=O)C[C@@H]2CC[C@@H](NS(=O)(=O)c3cccc(OC)c3)[C@H](CO)O2)cc1 returned Ecoli rRNA inh -2, MLL AF4-AF9 inh -0.7, Ecoli rRNA inh OD600 1 and Ecoli rRNA inh RFP 1.5.
Screening C[C@H](O)C#Cc1ccc([C@H]2[C@@H](CO)N3CCCCN(C(=O)c4ccc(F)cc4)C[C@H]23)cc1 returned Ecoli rRNA inh 1, MLL AF4-AF9 inh -2.3, Ecoli rRNA inh OD600 7 and Ecoli rRNA inh RFP 0.6.
Screening COc1ccc(-c2ccc3c(c2)[C@@H]2[C@@H](CCN2C(=O)C2CCCCC2)[C@@H](CO)N3C)cc1 returned Ecoli rRNA inh -36, MLL AF4-AF9 inh -2.6, Ecoli rRNA inh OD600 -45 and Ecoli rRNA inh RFP 24.
CC(=O)N1[C@H](C(=O)Nc2ccccc2)[C@@H](CO)[C@@H]2Cn3c(ccc(C4=CCCCC4)c3=O)[C@@H]21 was read as Ecoli rRNA inh 2, MLL AF4-AF9 inh -2.2, Ecoli rRNA inh OD600 -13 and Ecoli rRNA inh RFP -1.1.
`C[C@@H]1CCCCO[C@@H](CN(C)C(=O)C2CCCCC2)[C@H](C)CN([C@H](C)CO)C(=O)c2cc(NC(=O)C3CCCCC3)ccc2O1` gave Ecoli rRNA inh 1, MLL AF4-AF9 inh -0.9, Ecoli rRNA inh OD600 4 and Ecoli rRNA inh RFP 3.0.
`COC(=O)C[C@H]1CC[C@H]2[C@@H](COC[C@H](O)CN2S(=O)(=O)c2ccccc2OC)O1` gave Ecoli rRNA inh 1, MLL AF4-AF9 inh -1.5, Ecoli rRNA inh OD600 10 and Ecoli rRNA inh RFP -4.2.
For O=C(N[C@H]1CC[C@@H](CCn2cc(C3(O)CCCC3)nn2)O[C@H]1CO)C1CC1 the results were Ecoli rRNA inh 1, MLL AF4-AF9 inh -3.3, Ecoli rRNA inh OD600 2 and Ecoli rRNA inh RFP -1.7.
Screening Clc1ccccc1Nc1nc(NCc2cccs2)nc2ccsc12 returned Ecoli rRNA inh -7, MLL AF4-AF9 inh -0.5, Ecoli rRNA inh OD600 -3 and Ecoli rRNA inh RFP -1.6.
Screening COc1ccc(CNC(=O)C[C@@H]2C=C[C@H](NC(=O)c3cccc(F)c3)[C@H](CO)O2)cc1 returned Ecoli rRNA inh 2, MLL AF4-AF9 inh -3.0, Ecoli rRNA inh OD600 -17 and Ecoli rRNA inh RFP -0.1.
N#C[C@@H]1[C@H](c2ccc(C#Cc3ccccc3F)cc2)[C@H](CO)N1C(=O)C1CCC1 was read as Ecoli rRNA inh 1, MLL AF4-AF9 inh -1.5, Ecoli rRNA inh OD600 0 and Ecoli rRNA inh RFP 1.3.
For CC(=O)N1[C@H](CO)[C@@H]2c3ccccc3N(S(=O)(=O)c3ccccc3C)C[C@@H]21 the results were Ecoli rRNA inh -3, MLL AF4-AF9 inh 1.1, Ecoli rRNA inh OD600 -5 and Ecoli rRNA inh RFP 0.1.
For COc1ccccc1C(=O)N1C[C@H]2[C@@H](c3ccccc31)[C@@H](CO)N2C(=O)Cc1ccccc1 the results were Ecoli rRNA inh 2, MLL AF4-AF9 inh 1.3, Ecoli rRNA inh OD600 11 and Ecoli rRNA inh RFP -1.4.
C[C@@H]1CN([C@H](C)CO)C(=O)Cc2cc(NS(=O)(=O)c3cccs3)ccc2O[C@H]1CN(C)S(=O)(=O)c1cn(C)cn1 was read as Ecoli rRNA inh 3, MLL AF4-AF9 inh -22, Ecoli rRNA inh OD600 4 and Ecoli rRNA inh RFP 0.7.
CC[C@@H]1Cc2[nH][nH]c(=O)c2[C@@H](c2ccc(Cl)cc2)O1 was read as Ecoli rRNA inh 13, MLL AF4-AF9 inh 0.6, Ecoli rRNA inh OD600 10 and Ecoli rRNA inh RFP 0.7.
`COc1ccc(S(=O)(=O)Nc2ccc3c(c2)CC(=O)N([C@H](C)CO)C[C@H](C)[C@@H](CN(C)C(=O)Nc2ccccc2)O3)cc1` gave Ecoli rRNA inh 2, MLL AF4-AF9 inh -0.1, Ecoli rRNA inh OD600 -1 and Ecoli rRNA inh RFP 1.9.
Screening COc1cccc(-c2cnc(C(O)c3cc(C)cc(C)c3)[nH]2)c1 (configuration not stated) returned Ecoli rRNA inh -12, MLL AF4-AF9 inh 5.3, Ecoli rRNA inh OD600 -59 and Ecoli rRNA inh RFP -2.9.
Screening C[C@H]1CN([C@@H](C)CO)C(=O)CCCn2nncc2CO[C@H]1CN(C)C(=O)Nc1ccc2c(c1)OCCO2 returned Ecoli rRNA inh -1, MLL AF4-AF9 inh 3.4, Ecoli rRNA inh OD600 1 and Ecoli rRNA inh RFP 0.1.
C[C@H]1CN([C@@H](C)CO)C(=O)c2cc(C#Cc3ccccc3)cnc2O[C@H]1CN(C)CC1CCOCC1 was read as Ecoli rRNA inh 1, MLL AF4-AF9 inh 0.3, Ecoli rRNA inh OD600 12 and Ecoli rRNA inh RFP 0.4.
C[C@H](CO)N1C[C@H](C)[C@@H](CN(C)C)Oc2cc(-c3cccnc3)ccc2S1(=O)=O was read as Ecoli rRNA inh 1, MLL AF4-AF9 inh -2.3, Ecoli rRNA inh OD600 12 and Ecoli rRNA inh RFP -3.6.
For CC(C)NC(=O)OC[C@@H]1CSCCS(=O)(=O)N1 the results were Ecoli rRNA inh 21, MLL AF4-AF9 inh -1.0, Ecoli rRNA inh OD600 11 and Ecoli rRNA inh RFP 1.7.
For C[C@@H]1CCCCO[C@H](CN(C)CC2CCCCC2)[C@@H](C)CN([C@H](C)CO)C(=O)c2cc(NC(=O)Nc3ccc(C(F)(F)F)cc3)ccc2O1 the results were Ecoli rRNA inh 3, MLL AF4-AF9 inh 4.9, Ecoli rRNA inh OD600 5 and Ecoli rRNA inh RFP 1.9.
CCCNC(=O)N[C@H]1CC[C@@H](CC(=O)N2CCN(C)CC2)O[C@@H]1CO was read as Ecoli rRNA inh 3, MLL AF4-AF9 inh 1.2, Ecoli rRNA inh OD600 7 and Ecoli rRNA inh RFP -1.3.
Screening C[C@H](CO)N1C[C@H](C)[C@@H](CN(C)Cc2ccc(Cl)c(Cl)c2)Oc2ccc(NC(=O)CCC(F)(F)F)cc2CC1=O returned Ecoli rRNA inh -9, MLL AF4-AF9 inh 2.9, Ecoli rRNA inh OD600 -18 and Ecoli rRNA inh RFP 3.5.
CC(C)CC#Cc1ccc([C@@H]2[C@@H](CO)N3CCCCN(C(=O)NC4CCCC4)C[C@@H]23)cc1 was read as Ecoli rRNA inh -53, MLL AF4-AF9 inh -14, Ecoli rRNA inh OD600 -50 and Ecoli rRNA inh RFP 1.8.
For CCCN(CC(=O)Nc1ccc(F)c(F)c1F)C(=O)CN1C(=O)NC2(CCCCC2)C1=O the results were Ecoli rRNA inh 3, MLL AF4-AF9 inh -2.4, Ecoli rRNA inh OD600 14 and Ecoli rRNA inh RFP -0.1.
O=C(CCN1CCCCC1)N[C@@H]1CC[C@@H](CCn2cc(-c3cccc(F)c3)nn2)O[C@@H]1CO was read as Ecoli rRNA inh 1, MLL AF4-AF9 inh 1.2, Ecoli rRNA inh OD600 4 and Ecoli rRNA inh RFP -1.5.
For CCCCN1CC(N2CCN(C3CCN(C)CC3)CC2)CS1(=O)=O (configuration not stated) the results were Ecoli rRNA inh 28, MLL AF4-AF9 inh 6.5, Ecoli rRNA inh OD600 21 and Ecoli rRNA inh RFP 1.2.
C[C@H]1CN([C@@H](C)CO)S(=O)(=O)c2ccc(-c3ccccc3F)cc2O[C@H]1CN(C)S(C)(=O)=O was read as Ecoli rRNA inh -3, MLL AF4-AF9 inh -1.3, Ecoli rRNA inh OD600 -3 and Ecoli rRNA inh RFP -2.9.
`C[C@H](CO)N1C[C@H](C)[C@H](CN(C)S(C)(=O)=O)Oc2ccc(NC(=O)c3ccncc3)cc2C1=O` gave Ecoli rRNA inh 3, MLL AF4-AF9 inh -3.9, Ecoli rRNA inh OD600 1 and Ecoli rRNA inh RFP -2.7.
For Fc1cccc(-c2cncc(N3CCN(CCN4CCCC4)CC3)n2)c1 the results were Ecoli rRNA inh 4, MLL AF4-AF9 inh 5.7, Ecoli rRNA inh OD600 5 and Ecoli rRNA inh RFP 31.
Screening CO[C@@H]1CN(C)C(=O)c2cc(NC(=O)c3cc(C)on3)ccc2OC[C@@H](C)N(CC2CC2)C[C@@H]1C returned Ecoli rRNA inh 4, MLL AF4-AF9 inh -0.6, Ecoli rRNA inh OD600 6 and Ecoli rRNA inh RFP -2.6.
Screening CCOc1cc(C(=O)N(Cc2ccccc2)c2ccc(C)cc2)ccc1OCC(=O)N1CCOCC1 returned Ecoli rRNA inh -6, MLL AF4-AF9 inh -3.8, Ecoli rRNA inh OD600 -6 and Ecoli rRNA inh RFP 1.6.
Screening CCCN1C[C@@H](C)[C@H](OC)CN(C)C(=O)c2ccc(NC(=O)C3CCOCC3)cc2OC[C@@H]1C returned Ecoli rRNA inh 3, MLL AF4-AF9 inh -1.5, Ecoli rRNA inh OD600 5 and Ecoli rRNA inh RFP -2.1.
Screening Cc1ccc(S(=O)(=O)Nc2cccc3c2O[C@H](CN(C)CC2CC2)[C@@H](C)CN([C@H](C)CO)C3=O)cc1 returned Ecoli rRNA inh 2, MLL AF4-AF9 inh -3.8, Ecoli rRNA inh OD600 8 and Ecoli rRNA inh RFP -1.6.
Screening C[C@H](CO)N1C[C@H](C)[C@@H](CN(C)S(=O)(=O)c2cn(C)cn2)OCCCC[C@H](C)Oc2ccc(NS(=O)(=O)c3ccccc3)cc2C1=O returned Ecoli rRNA inh -1, MLL AF4-AF9 inh 5.0, Ecoli rRNA inh OD600 2 and Ecoli rRNA inh RFP 0.0.
For COc1cc(C(=O)NCC(c2ccco2)N2CCCC2)ccc1OCc1ccc(Cl)cc1Cl (configuration not stated) the results were Ecoli rRNA inh -57, MLL AF4-AF9 inh 7.9, Ecoli rRNA inh OD600 -80 and Ecoli rRNA inh RFP -28.

5 successive records already listed, quoted:
Screening COc1ccc2c3c(n(C)c2c1)[C@H](CO)N(Cc1ccncc1)CC31CN(C(=O)C2CCCCC2)C1 returned Ecoli rRNA inh -6, MLL AF4-AF9 inh 1.6, Ecoli rRNA inh OD600 -6 and Ecoli rRNA inh RFP -1.9.
`C[C@@H]1CN([C@H](C)CO)C(=O)Cc2cc(NC(=O)C3CC3)ccc2O[C@@H]1CN(C)S(=O)(=O)c1ccc(F)cc1` gave Ecoli rRNA inh 4, MLL AF4-AF9 inh -1.6, Ecoli rRNA inh OD600 5 and Ecoli rRNA inh RFP -1.2.
CN(C)C(=O)c1cccc(-c2ccc([C@H]3[C@@H](C#N)N(C(=O)C4CCCCC4)[C@H]3CO)cc2)c1 was read as Ecoli rRNA inh 0, MLL AF4-AF9 inh -0.2, Ecoli rRNA inh OD600 0 and Ecoli rRNA inh RFP 1.0.
For COC(=O)C1=C(C)N(C)C(=NCC2CC2)NC1c1cccc(Cl)c1 (configuration not stated) the results were Ecoli rRNA inh -19, MLL AF4-AF9 inh -0.2, Ecoli rRNA inh OD600 -34 and Ecoli rRNA inh RFP -6.5.
`COc1ccc(S(=O)(=O)Nc2ccc3c(c2)C(=O)N([C@@H](C)CO)C[C@H](C)[C@@H](CN(C)C(=O)Nc2ccc(F)cc2)OCCCC[C@@H](C)O3)cc1` gave Ecoli rRNA inh -2, MLL AF4-AF9 inh 2.0, Ecoli rRNA inh OD600 -5 and Ecoli rRNA inh RFP -1.5.
